HNF4A DNA FP = change in binding of human HNF4 alpha to DNA. HNF4a-FITC DNA binding, fluorescence polarization, 1 h. P41235. 0.3% of 360,000 active. activity change, % at 10 µM; in the data active means activity change above about 30%, passing the limit was not always enough;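 further: controls were the assay level and a saturating level of protein; the project sought stronger binding though the title names inhibitors; some compounds called inactive have numbers as strong as hits; positive values seem to mean higher polarization but the record does not say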
E coli growth = blocks Escherichia coli growth; OD600, 23 h; stronger effect = lower value; OD600 absorbance (concentration not given with the values); 0.21% of 330,000 active; AID 1053175;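 active means OD600 absorbance below the run mean of sample wells minus 3.6 SD, in any replicate, cut at about 0.56 in these data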;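 further: stock transfer was 300 nL into about 60 µL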
rRNA inh HTS = inhibits bacterial ribosomal RNA function over humanized ribosomes; GFP signal change (wild-type ribosome), % (no concentration beside the values); 1.6% of 350,000 active; AID 720706; E. coli WT GFP vs humanized-ribosome RFP mutants, fluorescence, 24 h; stronger effect = lower value; DMSO median 0, no signal -100;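 active means significant combined selectivity score with lowered wild-type GFP, culture density cut under 30%, mutant RFP and density less affected; inactive means any of these conditions unmet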; further: one replicate is shown; some compounds called inactive have numbers as strong as hits
FGF22 binding = binders of recombinant human FGF22 by thermal shift | Q9HCT0 | AID 651658 | 1.5% of 340,000 active | calls only at 9.99 µM | SYPRO orange fluorescence; percent of sucrose octasulfate shift, DMSO zero;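 active means melting point raised past a set limit in the mean and every replicate; inconclusive means no clear call; three in four hits are not shown here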
Target sequence (Q9HCT0 whole entry, looked up): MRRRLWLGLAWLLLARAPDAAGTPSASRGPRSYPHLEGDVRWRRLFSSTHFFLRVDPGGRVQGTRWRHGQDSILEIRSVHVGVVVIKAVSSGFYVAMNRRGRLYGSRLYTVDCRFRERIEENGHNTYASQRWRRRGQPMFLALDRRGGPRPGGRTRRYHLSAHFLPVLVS
UCH37 inh = blocks the human deubiquitinase UCH37. Q9Y5K5. purified proteasome/UCH37, Ub-AMC cleavage fluorescence. inhibition, % (concentration not given with the values). 0.33% of 330,000 active. AID 588478;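 active means mean of two replicates above 20%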;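 further: 0% = compound-free wells with enzyme and 100% = wells lacking proteasome; stock transfer was 100 nL into about 20 µL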
Target sequence (Q9Y5K5 whole entry, looked up): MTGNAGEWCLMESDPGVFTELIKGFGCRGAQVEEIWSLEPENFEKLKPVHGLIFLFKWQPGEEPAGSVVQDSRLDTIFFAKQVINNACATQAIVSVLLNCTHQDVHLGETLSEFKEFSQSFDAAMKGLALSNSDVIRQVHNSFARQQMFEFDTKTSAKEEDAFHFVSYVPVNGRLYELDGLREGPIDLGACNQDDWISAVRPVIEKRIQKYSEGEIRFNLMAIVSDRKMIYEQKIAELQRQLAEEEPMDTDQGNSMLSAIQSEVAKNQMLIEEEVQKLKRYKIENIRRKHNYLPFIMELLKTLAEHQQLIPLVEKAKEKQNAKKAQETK
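System: Proteasome-associated human UCH37 deubiquitinase; Input: 0.15 nM proteasome in added enzyme buffer; Also added: Ub-AMC substrate from 1 µM stock; Incubation: 30 min compound-proteasome preincubation then 25 min substrate reaction, room temperature; Detection: fluorescence, ex 355 nm, em 460 nm; Read-out: % inhibition of Ub-AMC cleavage fluorescence; Benchmarks: no-proteasome and no-compound wells.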
ALR inh = blocks human ALR sulfhydryl oxidase activity | purified ALR, DTT oxidation, H2O2 HRP-luminol luminescence | inhibition, % (test concentration not listed) | 3.8% of 290,000 active;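 active means mean and each replicate at 75% or more; inconclusive means only one of the two met; inactive means neither met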;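 further: stock transfer was 7.5 nL into about 7.5 µL; 0% = neutral wells and 100% = wells with inactivated enzyme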
B2AR ag = agonists of human beta-2 adrenergic receptor inducing internalization; Am2.2-beta2AR cells, FAP receptor internalization, flow cytometry; reference of the scale not given here; 0.43% of 340,000 active; response, % (no concentration beside the values);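 active means response above a set limit, near 3 SD of response in nonfluorescent compounds, cut at about 42% in these data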;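 further: stock transfer was 100 nL into about 11 µL; a reference agonist was the positive control; negative values mostly stem from fluorescent compounds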
Target sequence (P07550 whole entry, looked up): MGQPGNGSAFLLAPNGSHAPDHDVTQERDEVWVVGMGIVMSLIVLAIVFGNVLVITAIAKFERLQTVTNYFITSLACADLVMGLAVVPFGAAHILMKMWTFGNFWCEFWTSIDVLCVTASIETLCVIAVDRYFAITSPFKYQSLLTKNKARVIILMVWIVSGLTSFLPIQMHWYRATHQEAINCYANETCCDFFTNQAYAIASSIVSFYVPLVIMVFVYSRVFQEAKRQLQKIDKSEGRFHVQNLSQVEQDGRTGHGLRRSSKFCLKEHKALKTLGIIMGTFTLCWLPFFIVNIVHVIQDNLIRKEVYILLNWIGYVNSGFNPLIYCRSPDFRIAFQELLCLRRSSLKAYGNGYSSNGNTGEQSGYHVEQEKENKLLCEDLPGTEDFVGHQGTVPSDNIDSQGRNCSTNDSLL
rRNA inh HTS OD600 = also measured in rRNA inh HTS; calls as there; OD600 change, %; measured here: OD600 growth;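 optical density of the mix in the first replicate; 0 = DMSO median and -100 = no signal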
rRNA inh HTS RFP = also measured in rRNA inh HTS; calls as there; RFP signal change, %; measured here: RFP humanized mutant strains;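 first replicate; 0 = DMSO median and -100 = no signal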
The depositor's hits bear a star; i = inactive; ? = inconclusive; · = no result given. Some of the compounds tested (hit frequency here may not be typical).

cpd	rRNA inh HTS	rRNA inh HTS RFP	FGF22 binding	HNF4A DNA FP	E coli growth	ALR inh	UCH37 inh	B2AR ag	rRNA inh HTS OD600	SMILES
1	10	-0.4	i	3.7	·	-9	·	14	2	COc1ccc(-c2cc3c(=O)n(CC(=O)NCCCN4CCC(Cc5ccccc5)CC4)ncn3n2)cc1
2	-9	-4.3	i	0.4	·	6	·	11	-28	COc1ccc(/C(C)=N/NC(=O)c2cccc(S(=O)(=O)N3CCCC3)c2)c(O)c1
3	18	0.7	i	6.5	0.67	9	-219	1	0	Cc1cc(C)n2c(nc3ccccc32)c1C(=O)NN
4	·	·	·	-0.9	0.66	-3	0.6	-1	·	O=C1CC(N2CCN(c3nc4ccccc4s3)CC2)C(=O)N1c1ccc(F)cc1 (configuration not stated)
5	·	·	i	-5.5	0.7	42	-9.5	·	·	Cn1cc(C(F)(F)F)nc1-c1ccc(OCC(O)CNCCOc2ccc(O)c(C(N)=O)c2)cc1 (configuration not stated)
6	·	·	·	2.7	0.7	0	1.8	-4	·	CO/N=C/NC(=O)c1c(OC)ccnc1Oc1cccc(C(F)(F)F)c1
7	4	-2.8	i	3.6	0.68	26	-19	4	11	NC(=O)c1cc(Cl)ccc1OCC(=O)NC1CC1
8	·	·	·	1.4	0.66	55	3.5	2	·	O=C(CSCc1ccc(F)cc1)N1CCN(c2ccccc2)CC1
9	·	·	·	-0.5	0.77	-1	-2.3	18	·	O=C1C2C3C=CC(C3)C2C(=O)N1c1ccncc1 (configuration not stated)
10	17	0.9	i	7.3	0.68	-3	-1.6	0	-11	Cc1cccc(CC(=O)N2CCC(N3CCC(C(=O)N4CCOCC4)CC3)CC2)c1
11	8	-1.1	i	0.9	·	·	·	·	2	O=C(NCc1ccncc1)[C@@H]1CCCN1C(=O)[C@H]1CCCN1C(=O)c1cccs1
12	·	·	·	0.6	0.61	4	0.7	-2	·	COC(=O)c1ccc(NC(=O)c2ccc(CN3CCOCC3)cc2)cc1
13	·	·	·	-0.8	0.76	-1	-0.2	1	·	CCCc1nnc(NC(=O)CCC(=O)N2CCCCCC2)s1
14	-5	-7.7	i	-0.7	0.69	25	2.6	13	9	O=c1cc(Cc2ccccc2)[nH]c(=S)[nH]1
15	·	·	·	-8.5	0.74	-20	3.9	6	·	Cc1ccc2c(c1)c(=O)c1c3n2CCN(C(=O)CCl)C3CC1 (configuration not stated)
16	·	·	·	-0.6	0.73	-21	-142	4	·	COc1ccc(C)cc1NC(=O)CN1C(=O)c2cccc3cccc1c23
17	-1	-11	i	-7.0	0.64	-3	-2.6	4	1	CCOC(=O)/C(C#N)=C\c1ccc(OC)c(OC)c1
18	-18	63	i	1.9	0.65	99*	4.4	5	-3	COc1ccc(Nc2ccc(OC)cc2)cc1
19	8	2.0	i	0.5	0.65	9	6.1	6	9	CN1CCN(NC(=O)Nc2ccc([N+](=O)[O-])cc2)CC1
20	-3	-2.5	i	1.0	0.72	-9	2.7	-2	2	CCn1cc(C(=O)N2CCCC(N3CCN(c4cccc(C(F)(F)F)c4)CC3)C2)cn1 (configuration not stated)
21	9	0.5	i	3.7	0.72	-2	2.8	0	-1	COc1ccc(NC(=O)CN2C(=O)C(=O)N(C3CCCC3)C2=O)c(OC)c1
22	·	·	·	-2.0	0.74	42	2.6	2	·	COc1ccc(N2C(=O)CC(Sc3nnc(-c4ccccc4)o3)C2=O)cc1 (configuration not stated)
23	9	1.3	i	1.4	·	·	·	-1	14	CC12CCC(=O)N1C(C(=O)NNC(=O)c1ccccc1Cl)CS2 (configuration not stated)
24	·	·	·	3.5	0.7	-8	2.3	8	·	CC1CN(S(=O)(=O)c2ccc(-c3nc4ccccc4s3)cc2)CC(C)O1 (configuration not stated)
25	12	-3.3	i	-1.4	0.72	-2	-2.9	-2	15	O=C(Cn1c(=O)[nH]c2ccccc2c1=O)N1CCN(c2cccc(Cl)c2)CC1
26	22	-1.4	i	2.5	0.69	·	-0.2	8	5	O=C(c1cc([N+](=O)[O-])cc([N+](=O)[O-])c1)N1CCOCC1
27	·	·	·	0.7	0.74	1	-0.1	-11	·	CCc1c(C)c(C#N)c2nc3ccccc3n2c1Nc1c(C)n(C)n(-c2ccccc2)c1=O
28	·	·	·	-3.9	0.72	-7	2.1	2	·	O=C(O)c1ccc2c(c1)C(c1ccccc1)OC2=O (configuration not stated)
29	·	·	·	9.3	0.64	11	-0.1	1	·	Cc1cc(C(F)(F)F)nn1Cc1n[nH]c(=S)n1-c1ccc(Cl)cc1
30	·	·	·	-2.1	0.64	-14	0.1	0	·	Cc1ccc2cc(CN(CCN3CCCC3)C(=O)Nc3ccccc3)c(=O)[nH]c2c1C
31	5	2.0	i	2.3	0.69	2	-6.9	-6	6	Cc1cccc2cc(CN(Cc3ccco3)C(=O)c3ccco3)c(=O)[nH]c12
32	6	-0.8	i	-3.1	0.69	-11	4.2	1	4	Cc1ccc(-n2c(CSc3nc(C)cc(C)n3)nnc2SCC(=O)Nc2nccs2)cc1
33	·	·	·	1.6	0.74	-12	1.5	-2	·	CCOc1nc(NCCc2ccc(OC)c(OC)c2)nc(N2CCN(c3ccc(OC)cc3)CC2)n1
34	14	2.3	i	1.1	0.69	-23	5.5	4	3	COc1cccc(-c2nc3ccc([N+](=O)[O-])cc3o2)c1
35	-15	0.9	i	-0.9	0.68	0	-1.5	-10	-17	OCn1c2ccccc2c2ccccc21
36	·	·	·	-0.7	0.72	·	2.8	6	·	COc1ccccc1-n1c(SCC(=O)O)nnc1-c1ccc(S(=O)(=O)N2CCCCC2)cc1
37	·	·	·	1.2	0.72	62	-65	2	·	CCOc1cc(C2NN=C(c3ccccc3)S2)ccc1OCc1ccc(F)cc1 (configuration not stated)
38	7	3.9	i	-3.0	0.75	-3	1.7	-1	6	Cc1ccc(S(=O)(=O)N[C@H](C(=O)N2CCC(C(=O)N[C@@H](CC(=O)O)C(=O)O)CC2)C(C)C)cc1
39	·	·	·	3.2	0.76	-1	1.5	-1	·	CCc1cc2c(SCC(=O)C(C#N)=C3N(C)c4ccccc4N3C)ncnc2s1
40	·	·	·	-2.4	0.7	·	-1.8	0	·	Cc1nn(-c2ccccc2)c(N)c1C(c1ccccc1)c1c(C)nn(-c2ccccc2)c1N
41	-23	-9.1	i	0.5	0.67	3	6.8	1	-27	O=C(CCCN1C(=O)/C(=C\c2ccccc2)SC1=S)Nc1ccc(O)cc1
42	·	·	·	-0.1	0.66	-10	1.4	0	·	CCOC(=O)C(NC(=O)c1cccc(Cl)c1)(Nc1nnc(C)s1)C(F)(F)F (configuration not stated)
43	2	-2.8	i	0.5	0.72	1	8.5	3	11	CC1CCCCN1C(=O)c1c([N+](=O)[O-])cnn1C (configuration not stated)
44	-13	-3.8	i	-3.6	·	5	0.2	21	-5	CC[C@H](CO)Nc1nc(Nc2cccc(Cl)c2)c2ncn(C(C)C)c2n1
45	·	·	·	-0.1	0.67	9	-31	-4	·	c1ccc(CN2CCN(c3nc(N4CCOCC4)c4ccccc4n3)CC2)cc1

Single records, from the list above. Screens in order: rRNA inh HTS, rRNA inh HTS RFP, FGF22 binding, HNF4A DNA FP, E coli growth, ALR inh, UCH37 inh, B2AR ag, rRNA inh HTS OD600
Record of Cc1cccc2cc(CN(Cc3ccco3)C(=O)c3ccco3)c(=O)[nH]c12 : 5, 2.0, i, 2.3, 0.69, 2, -6.9, -6, 6
Record of O=C(CCCN1C(=O)/C(=C\c2ccccc2)SC1=S)Nc1ccc(O)cc1 : -23, -9.1, i, 0.5, 0.67, 3, 6.8, 1, -27
Record of CCOc1nc(NCCc2ccc(OC)c(OC)c2)nc(N2CCN(c3ccc(OC)cc3)CC2)n1 : ·, ·, ·, 1.6, 0.74, -12, 1.5, -2, ·
Record of CCOc1cc(C2NN=C(c3ccccc3)S2)ccc1OCc1ccc(F)cc1 (configuration not stated) : ·, ·, ·, 1.2, 0.72, 62, -65, 2, ·
Record of Cc1ccc(S(=O)(=O)N[C@H](C(=O)N2CCC(C(=O)N[C@@H](CC(=O)O)C(=O)O)CC2)C(C)C)cc1 : 7, 3.9, i, -3.0, 0.75, -3, 1.7, -1, 6

Carrying on:
cpd	rRNA inh HTS	rRNA inh HTS RFP	FGF22 binding	HNF4A DNA FP	E coli growth	ALR inh	UCH37 inh	B2AR ag	rRNA inh HTS OD600	SMILES
46	4	4.1	i	4.6	0.74	-2	7.2	-6	-4	Oc1c(N=NC(=S)Nc2ccccc2F)c2ccccc2n1Cc1ccccc1Cl
47	·	·	·	-4.1	0.67	-13	-0.1	8	·	CC(=O)Nc1cccc(NC(=O)C2CCCN2C(=O)Nc2cccc(F)c2)c1 (configuration not stated)
48	3	-1.1	i	-1.7	·	4	·	9	4	Cn1c(=O)c2c(nc(Br)n2C/C=N/NC(N)=S)n(C)c1=O
49	5	-0.9	·	-1.6	0.73	4	2.2	-10	-1	COc1ccnc(N=CNOCc2cccc(C(F)(F)F)c2)c1C#N
50	-1	3.1	i	-0.6	0.71	-5	2.6	5	2	COc1cc(Br)c(/C=C/c2ccc3cccc(O)c3n2)cc1OC
51	1	3.3	i	-3.3	·	1	-0.7	-7	-7	O=C(C1=C[C@@H](c2coc3ccccc3c2=O)C[C@@H](OCCCCO)O1)N1CCN(Cc2ccccc2)CC1
52	8	-0.1	i	-4.2	0.71	45	0.4	7	0	O=C1CSC(c2ccccn2)N1c1ccc(Br)cc1 (configuration not stated)
53	12	-1.6	i	-0.3	0.67	?	2.1	-4	-1	Nc1ccc(CSc2ccc(Cl)cc2)cc1
54	·	·	·	2.6	0.69	6	-0.1	5	·	Cc1cc(Nc2ccccc2)n(-c2nc3ccccc3[nH]2)n1
55	0	-0.5	i	0.9	0.7	-1	-2.2	-4	-17	O=C(CN1C(=O)NC(c2ccccc2)(c2ccccc2)C1=O)N1CCN(c2ccccc2F)CC1
56	·	·	·	-3.8	0.69	·	-0.5	-11	·	COc1ccc(NC(=O)N2CCCC2C(=O)NCc2ccc(F)cc2)cc1 (configuration not stated)
57	14	-1.2	i	1.9	·	·	4.0	15	3	O=C(/C=C/c1cccc([N+](=O)[O-])c1)n1cnc2ccccc21
58	8	-0.9	·	0.5	0.69	5	21*	-1	7	Cc1ccc(S(=O)(=O)NN2C(=O)/C(=C/c3ccc(C(=O)O)cc3)SC2=S)cc1
59	·	·	·	2.9	0.71	3	3.1	-6	·	COc1ccc(CC(=O)NCc2ccc3c(c2)OCO3)cc1
60	6	-1.3	i	4.4	0.65	?	1.2	-5	4	COc1ccc2ccccc2c1-c1csc(N)n1

Entries by screen from above:
Nos. 46–55 in B2AR ag, in turn: -6, 8, 9, -10, 5, -7, 7, -4, 5, -4
Nos. 46–55 in UCH37 inh, in turn: 7.2, -0.1, ·, 2.2, 2.6, -0.7, 0.4, 2.1, -0.1, -2.2

Screening results as filed in PubChem.
